Bioassay records deposited in PubChem BioAssay by several laboratories.
RanGTP-Imp inh: inhibitors of RanGTP-importin-beta interaction, primary screen, biochemical, FRET, CFP-Ran, YFP-importin-beta, homogeneous. Ran GTPase (GTP-bound) - importin-beta complex. cell-free CFP-Ran/YFP-importin-beta FRET ratio. inhibition, % (test concentration not listed). 300,000 tested, 1.1% active. AID 2216, 2009;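 active means most replicates above 15%; inconclusive means exactly half above 15%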;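 further: 0% = DMSO wells and 100% = Ran loaded with GDP instead of GTP; wells of about 40 µL received 100 nL stock; the first replicate is given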
MLL AF4-AF9 inh: inhibitors of AF4 peptide binding to AF9, primary screen, biochemical, AlphaScreen, biotin-AF4 peptide, FLAG-AF9, single point; Protein AF-9 (Homo sapiens), P42568; inhibition, % at 10 µM; 350,000 tested, 0.47% active;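 active means every replicate reaching a set inhibition limit, whatever the replicate mean, cut at about 25% in these data; inconclusive means mean inhibition reaches that limit but some replicates miss it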;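 further: 0% = plate neutral control median and 100% = total signal loss; the record names both 10 and 1 µM as test concentration; the first replicate is given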
Target sequence (P42568 whole entry, looked up): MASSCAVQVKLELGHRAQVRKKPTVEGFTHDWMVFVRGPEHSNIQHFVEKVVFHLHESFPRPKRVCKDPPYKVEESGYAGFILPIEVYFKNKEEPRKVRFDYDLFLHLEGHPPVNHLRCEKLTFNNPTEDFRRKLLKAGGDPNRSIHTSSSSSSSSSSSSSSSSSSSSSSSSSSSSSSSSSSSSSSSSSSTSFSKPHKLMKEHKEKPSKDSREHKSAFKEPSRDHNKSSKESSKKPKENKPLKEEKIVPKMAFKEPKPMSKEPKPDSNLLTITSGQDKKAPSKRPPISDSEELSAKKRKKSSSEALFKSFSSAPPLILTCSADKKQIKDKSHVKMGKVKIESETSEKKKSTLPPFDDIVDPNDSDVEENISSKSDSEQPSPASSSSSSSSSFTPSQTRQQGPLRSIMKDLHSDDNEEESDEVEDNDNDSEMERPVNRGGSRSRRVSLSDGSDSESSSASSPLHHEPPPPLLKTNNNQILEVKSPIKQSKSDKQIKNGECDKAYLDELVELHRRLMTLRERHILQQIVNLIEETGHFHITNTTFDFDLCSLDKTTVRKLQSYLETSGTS
Vif A3G: inhibitors of Vif binding to APOBEC3G peptide, primary screen, biochemical, TR-FRET, GST-Vif 1-94, biotin-A3G peptide, dose response retest (AID 1117319) | Virion infectivity factor (Human immunodeficiency virus type 1 group M subtype B (isolate … | TR-FRET GST-Vif / biotin-A3G peptide binding; higher % means a stronger effect; test concentration not given here; strong numbers were not always called active | one-dose inhibition, %; IC50 in µM for titrated hits | 260,000 tested, 0.57% active;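 active means above the screen mean plus three standard deviations and confirmed in dose response; inconclusive means results disagree or hit not tested in dose response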;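 further: Vif residues 1-94 fused to GST binding biotinylated APOBEC3G peptide 110-148; 0% = full assay without inhibitor and 100% = GST in place of GST-Vif; retest series ran down from 100 µM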
Calb FLC: C. albicans growth inhibition with fluconazole, primary screen, CaCi-2 strain, Alamar Blue fluorescence; 300,000 tested, 0.57% active; C. albicans CaCi-2 (fluconazole-resistant clinical isolate) + fluconazole, 48 h; growth inhibition, % (no concentration beside the values);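 active means most replicates above 75%; inconclusive means exactly half above 75%; inactive means most below 75%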;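 further: all wells also contain fluconazole at 8 µg/ml as a sub-toxic cotreatment; 0% = median of DMSO wells and 100% = median of geldanamycin control wells; wells of about 8 µL received 7.5 nL stock; the first replicate is given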
T cruzi repl: inhibitors of intracellular T. cruzi growth, primary screen, luminescence, NIH3T3 host cells. inhibition, % (test concentration not listed). 300,000 tested, 1.4% active. T. cruzi beta-gal in NIH3T3, 90 h. AID 1885, 2009;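 active means mean inhibition across valid replicates above about 55%, limit read from the data; inconclusive means mean below that limit but half or more replicates reach it; inactive means mean below it, under half of replicates reach it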;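 further: signal also drops with host cell toxicity which is not excluded here; 0% = plate median of DMSO wells and 100% = zero luminescence signal; higher percent means less beta-gal luminescence so fewer parasites; stock transfer was 50 nL into about 50 µL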
A1 inh: caspase 3/7 activation in MEF A1-2A-BIM cells, primary screen, A1 inhibitor project, cell-based, luminescence, HTS; Caspase-Glo 3/7 luminescence, 3 h; percent of clofoctol response, vehicle zero; caspase activation, % (no concentration beside the values); 330,000 tested, 0.066% active;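 active means over half of replicate activation scores above 10%, or exactly half above 10 with the replicate mean above 10; inconclusive means replicate mean below 10 yet half the replicates above 10; inactive means over half of replicates below 10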;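 further: wells of about 30 µL received 50 nL stock; many hits fall short of the cut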
rRNA inh HTS: reduced GFP signal of wild-type E. coli, primary screen, bacterial rRNA inhibitor project, GFP/RFP fluorescence, OD600, single point; E. coli WT GFP vs humanized-ribosome RFP mutants, 24 h; hits give low values; DMSO median 0, no signal -100; GFP signal change (wild-type ribosome), % (test concentration not listed); 350,000 tested, 1.6% active;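 active means significant combined selectivity score with lowered wild-type GFP, culture density cut under 30%, mutant RFP and density less affected; inactive means any of these conditions unmet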; further: one replicate is shown; some compounds called inactive have numbers as strong as hits
Beta cell apopt: inhibitors of cytokine-induced beta cell apoptosis, primary screen, luminescence | 300,000 tested, 0.8% active | protection from apoptosis, % (test concentration not listed) | AID 435005, 2010 | INS-1E cytokine-induced death, ATP luminescence, 48 h; percent of positive-control rescue, neutral wells zero;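 active means all replicates at 75% or more, or half of them and the mean; inconclusive means half reach 75% but not the mean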;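 further: 0% = cytokine-treated negative control wells and 100% = positive control rescue; higher means more ATP so stronger rescue from cytokine killing; wells of about 40 µL received 100 nL stock; the first replicate is given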
rRNA inh HTS OD600: recorded beside rRNA inh HTS, whose call it bears; OD600 change, %; measured here: OD600 growth;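 optical density of the mix in the first replicate; 0 = DMSO median and -100 = no signal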
rRNA inh HTS RFP: further read-out of rRNA inh HTS, marked with its call; RFP signal change, %; measured here: RFP humanized mutant strains;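 first replicate; 0 = DMSO median and -100 = no signal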
An asterisk follows results filed as active; & = joins results of further samples.

How did COc1ccc2nc(C)cc(NCCN3CCOCC3)c2c1 do in these assays?
RanGTP-Imp inh: 2.7; MLL AF4-AF9 inh: 1.7; Vif A3G: 0.8%; Calb FLC: 2.2; T cruzi repl: -5.7; A1 inh: -0.2; rRNA inh HTS: 8.2; Beta cell apopt: 1.8; rRNA inh HTS OD600: 15.4; rRNA inh HTS RFP: -0.4

Results for CCc1c(O)nc(SCc2nc3ccccc3c(=O)[nH]2)[nH]c1=O ?
RanGTP-Imp inh: inconclusive; MLL AF4-AF9 inh: -1.6; Vif A3G: -6.5%; Calb FLC: -13.8; T cruzi repl: -4.7; A1 inh: -1.9; rRNA inh HTS: 15.4; Beta cell apopt: -5.2; rRNA inh HTS OD600: 8.6; rRNA inh HTS RFP: -1.8

Results for CC(=O)C1=C(O)C(=O)N(c2nccs2)C1c1ccccc1F (stereo unspecified) ?
RanGTP-Imp inh: 0.6; Vif A3G: -19.2%; Calb FLC: -8.0; T cruzi repl: -18.5; A1 inh: -1.1; rRNA inh HTS: 7.3; Beta cell apopt: -0.3; rRNA inh HTS OD600: -4.3; rRNA inh HTS RFP: 13.6

How did CC(=S)c1c(C)cc2cc(C)ccn12 do in these assays?
RanGTP-Imp inh: 6.0; MLL AF4-AF9 inh: 1.4; Vif A3G: inconclusive; Calb FLC: 44.7; T cruzi repl: -2.5; A1 inh: 0.3; rRNA inh HTS: 2.4; Beta cell apopt: -2.1; rRNA inh HTS OD600: 0.8; rRNA inh HTS RFP: -1.0

Results for COc1cccc(C(=O)NCCOc2cc(C)cc(C)c2)c1 ?
RanGTP-Imp inh: -1.1; Vif A3G: -3.6%; Calb FLC: -20.3; T cruzi repl: 1.3; A1 inh: 0.6; Beta cell apopt: 5.2

What do the screens show for `Oc1ccc(C=NCC2COc3ccccc3O2)cc1` (stereo unspecified)?
RanGTP-Imp inh: 0.2; Vif A3G: -1.8%; Calb FLC: -16.1; T cruzi repl: -3.2; A1 inh: 1.2; Beta cell apopt: -4.9

What do the screens show for `COc1ccccc1N1CCN(C(c2ccc(Cl)cc2)c2nnnn2C(C)(C)C)CC1` (stereo unspecified)?
RanGTP-Imp inh: 1.3; Vif A3G: 23.8%; Calb FLC: -2.2; T cruzi repl: 21.0; A1 inh: -0.2; Beta cell apopt: -6.5

What do the screens show for `O=S(=O)([N-]c1nc2ccccc2nc1-[n+]1ccccc1)c1ccccc1`?
RanGTP-Imp inh: 3.1; Vif A3G: 25.1%; Calb FLC: -14.4; T cruzi repl: -5.9; A1 inh: -0.4; Beta cell apopt: -5.2

Results for COc1cccc(NC(=O)CN(C)C(=O)c2oc3c(ccc4ccccc43)c2C)c1 ?
RanGTP-Imp inh: 0.4; MLL AF4-AF9 inh: -1.8; Vif A3G: 4.8%; Calb FLC: 0.7; T cruzi repl: 14.2; A1 inh: 1.3; rRNA inh HTS: -3.5; Beta cell apopt: -2.3; rRNA inh HTS OD600: -10.5; rRNA inh HTS RFP: -0.1

Results for O=C(CSc1ccc(-c2ccco2)nn1)N1CCCC1 ?
RanGTP-Imp inh: -1.3; MLL AF4-AF9 inh: -2.0; Vif A3G: -5.4%; Calb FLC: 9.4; T cruzi repl: -11.6; A1 inh: -0.7; rRNA inh HTS: 14.3; Beta cell apopt: -3.6; rRNA inh HTS OD600: 10.4; rRNA inh HTS RFP: 5.6

Results for O=C(C1CCCN(S(=O)(=O)c2ccc(Cl)cc2)C1)N1CCCC1 (stereo unspecified) ?
RanGTP-Imp inh: 5.3; MLL AF4-AF9 inh: inconclusive; Calb FLC: -1.9; T cruzi repl: 2.8; A1 inh: 1.5; rRNA inh HTS: -3.7; Beta cell apopt: -1.6; rRNA inh HTS OD600: -11.6; rRNA inh HTS RFP: -1.7

How did O=C(OCCN1CCCCC1)c1ccccc1F do in these assays?
RanGTP-Imp inh: -0.1; MLL AF4-AF9 inh: -1.6; Vif A3G: -3.4%; Calb FLC: 0.8; T cruzi repl: -10.5; A1 inh: 0.8; rRNA inh HTS: 5.8; Beta cell apopt: -0.4; rRNA inh HTS OD600: 10.3; rRNA inh HTS RFP: 0.2

Results for COC(=O)c1c(C)oc(C)c1S(=O)(=O)N1CCCCC1 ?
RanGTP-Imp inh: -1.7; MLL AF4-AF9 inh: 0.7; Vif A3G: inconclusive; Calb FLC: 0.2; T cruzi repl: -9.8; A1 inh: 0.4; rRNA inh HTS: 14.8; Beta cell apopt: -4.6; rRNA inh HTS OD600: 11.2; rRNA inh HTS RFP: 0.9

What do the screens show for `O=C(CSc1nnc(CN2CCOCC2)n1-c1ccccc1)Nc1ccc(Cl)cc1`?
RanGTP-Imp inh: 2.5; Vif A3G: 65.0%; Calb FLC: 1.0; T cruzi repl: 3.6; A1 inh: 0.6; Beta cell apopt: 1.3

Results for COCCNC(=O)CN1N=C(c2ccc(OC)cc2)CCC1=O ?
RanGTP-Imp inh: 0.0; MLL AF4-AF9 inh: -0.2; Vif A3G: -0.9%; Calb FLC: -13.2; T cruzi repl: 2.0; A1 inh: 0.7; rRNA inh HTS: 10.5; Beta cell apopt: -1.4; rRNA inh HTS OD600: 13.8; rRNA inh HTS RFP: -0.3

Results for Cc1nnc(C)n1/N=C/c1cccnc1 ?
RanGTP-Imp inh: -2.9; Vif A3G: 18.8%; Calb FLC: -2.3; T cruzi repl: 6.2; A1 inh: 1.3; Beta cell apopt: -5.5

What do the screens show for `CC(O)CCc1nc2ccc(C(=O)O)cc2[nH]1` (stereo unspecified)?
RanGTP-Imp inh: 4.4; Vif A3G: 1.4%; Calb FLC: -1.8; T cruzi repl: 3.4; A1 inh: 0.4; Beta cell apopt: 2.1

What do the screens show for `Cc1nnc(-c2cccc(Br)c2)c2cn(-c3ccccc3Cl)nc12`?
RanGTP-Imp inh: 1.4; Vif A3G: -50.8%; Calb FLC: 11.8; T cruzi repl: 27.9; A1 inh: 0.1; Beta cell apopt: 5.3

What do the screens show for `C=CCn1c(=O)c2c(nc3n2CCCN3CCc2ccccc2)n(C)c1=O`?
RanGTP-Imp inh: -0.7; MLL AF4-AF9 inh: -1.0; Calb FLC: 0.6; T cruzi repl: 10.0; A1 inh: 0.0; rRNA inh HTS: -1.8; Beta cell apopt: 5.5; rRNA inh HTS OD600: 7.7; rRNA inh HTS RFP: -3.5

How did Cc1ccsc1C(=O)Nc1ccc(OCc2ccccc2)cc1 do in these assays?
RanGTP-Imp inh: -2.3; MLL AF4-AF9 inh: -1.0; Vif A3G: 5.9%; Calb FLC: 5.5; T cruzi repl: 10.6; A1 inh: 0.4; rRNA inh HTS: 8.1; Beta cell apopt: 13.5; rRNA inh HTS OD600: 12.0; rRNA inh HTS RFP: -1.7

Results for CCCCn1c(N)c(N(CC)C(=O)c2c(CC)noc2C)c(=O)[nH]c1=O ?
RanGTP-Imp inh: inconclusive; MLL AF4-AF9 inh: -2.5; Vif A3G: -1.4%; T cruzi repl: -5.9; A1 inh: 0.3; rRNA inh HTS: 5.6; Beta cell apopt: -8.5; rRNA inh HTS OD600: 2.1; rRNA inh HTS RFP: -0.1

How did CCN1CCc2c(OCC(=O)N3CCCCC3)cccc2C1=O do in these assays?
RanGTP-Imp inh: 4.7; MLL AF4-AF9 inh: -1.3; Vif A3G: 4.5%; Calb FLC: 33.3; T cruzi repl: -10.5; A1 inh: 1.6; rRNA inh HTS: 10.7; Beta cell apopt: -3.4; rRNA inh HTS OD600: 12.4; rRNA inh HTS RFP: 0.2

How did Cc1ccc(S(=O)(=O)N2CCCC(C(=O)O)C2)s1 (stereo unspecified) do in these assays?
RanGTP-Imp inh: -2.7; MLL AF4-AF9 inh: -5.2; Vif A3G: 73.4%; Calb FLC: 6.7; T cruzi repl: 3.0; A1 inh: 2.0; rRNA inh HTS: 8.8; rRNA inh HTS OD600: -2.4; rRNA inh HTS RFP: 1.3

Results for CCOC(=O)CSc1ncc(OC)c(Sc2ccc(Cl)cc2)n1 ?
RanGTP-Imp inh: -1.8; Vif A3G: -6.7%; Calb FLC: 1.4; T cruzi repl: -8.3; A1 inh: 0.4; Beta cell apopt: -4.3

How did O=C1Nc2ccccc2Oc2cc([N+](=O)[O-])ccc21 do in these assays?
RanGTP-Imp inh: -1.2; MLL AF4-AF9 inh: 1.5; Vif A3G: 20.4%; Calb FLC: 2.0; T cruzi repl: 66.8*; A1 inh: -0.5; Beta cell apopt: 12.6

What do the screens show for `O=c1c2ccccc2sn1-c1ccc(F)cc1`?
MLL AF4-AF9 inh: -30.0; A1 inh: -11.7; rRNA inh HTS: -3.1; Beta cell apopt: 5.9; rRNA inh HTS OD600: 2.6; rRNA inh HTS RFP: -13.6

Results for COC(=O)c1c(NC(=O)c2ccco2)sc(C)c1C ?
RanGTP-Imp inh: 1.8; Vif A3G: 21.2%; Calb FLC: -2.0; T cruzi repl: 11.1; A1 inh: 0.6; Beta cell apopt: -3.4

Results for Cn1c(=O)c(=O)n(C)c2cc(S(=O)(=O)CCC(=O)N3CCCCC3)ccc21 ?
RanGTP-Imp inh: -0.6; MLL AF4-AF9 inh: -3.0; Calb FLC: -1.9; T cruzi repl: -7.1; A1 inh: 0.8; rRNA inh HTS: 3.6; Beta cell apopt: -0.2; rRNA inh HTS OD600: 10.6; rRNA inh HTS RFP: -4.6

How did CC(C)NC(=O)Nc1cccc2c1O[C@@H](CN(C)S(=O)(=O)c1ccc(F)cc1)[C@@H](C)CN([C@H](C)CO)C2=O do in these assays?
MLL AF4-AF9 inh: -9.5&-1.3; A1 inh: 0.1; rRNA inh HTS: -0.5&-9.9; Beta cell apopt: 0.4; rRNA inh HTS OD600: 0.7&-10.1; rRNA inh HTS RFP: -0.6&-1.1

How did Cc1ccc(S(=O)(=O)NNc2ccccc2)cc1 do in these assays?
RanGTP-Imp inh: -2.8; MLL AF4-AF9 inh: 13.8; Vif A3G: 3.9%; Calb FLC: 8.4; T cruzi repl: -1.5; A1 inh: -0.5; Beta cell apopt: -4.7

Results for COc1cccc(CNC(=O)CCl)c1 ?
RanGTP-Imp inh: 0.1; MLL AF4-AF9 inh: -1.9; Calb FLC: inconclusive; T cruzi repl: -12.9; A1 inh: -0.6; rRNA inh HTS: 11.4; Beta cell apopt: -3.5; rRNA inh HTS OD600: 12.9; rRNA inh HTS RFP: 2.7

Only part of the results is shown; count on the stated rates, not on these rows.
